Screening data from PubChem BioAssay.
Mtb H37Rv – M. tuberculosis H37Rv growth inhibitors, H37Rv strain (AID 1626); M. tuberculosis H37Rv growth inhibition; higher % means a stronger effect; inhibition, % at 10 µM; hits with a dose series show IC50 in µM; 0.95% of 220,000 active;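 active = confirmed in a dose series; inconclusive = inhibition above 80% but not taken into the dose series; inactive = below 80% or under 30% at every dose of the series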;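 also: bacteria incubated seven days before Alamar blue readout; 0% = bacteria only wells and 100% = bacteria with antibiotic wells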
YopH PTP inh – inhibitors of Yersinia enterocolitica YopH tyrosine phosphatase | fluorescence Ex485/Em525 | inhibition, %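 (about 10 µM by stock and volumes)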 | 0.16% of 140,000 active;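 active = inhibition of 50% or more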;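 also: controls were vehicle for no effect and minimum signal wells for full effect; inactives centre near -20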
Arbovirus inh – arbovirus infection inhibition; 0.37% of 200,000 active; arbovirus infection cell-based antiviral screen; inhibition, % at 10 µM;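 active = inhibition from about 30%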;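 also: bluetongue infection of BSR cells; cell survival read as ATP light after 72 h; 0% = infected wells without compound and 100% = uninfected wells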
RecA intein inh – Mtb RecA intein splicing inhibition; inhibition, %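 (about 9 µM by stock and volumes)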; cell-free RecA intein splicing, fluorescence; AID 2221; 0.75% of 290,000 active; in the data active = inhibition above about 30%; inconclusive = no clear call, values can overlap the other calls;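 also: 0% = vehicle wells and 100% = reference inhibitor control wells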
Target sequence (P9WHJ3 whole entry, looked up): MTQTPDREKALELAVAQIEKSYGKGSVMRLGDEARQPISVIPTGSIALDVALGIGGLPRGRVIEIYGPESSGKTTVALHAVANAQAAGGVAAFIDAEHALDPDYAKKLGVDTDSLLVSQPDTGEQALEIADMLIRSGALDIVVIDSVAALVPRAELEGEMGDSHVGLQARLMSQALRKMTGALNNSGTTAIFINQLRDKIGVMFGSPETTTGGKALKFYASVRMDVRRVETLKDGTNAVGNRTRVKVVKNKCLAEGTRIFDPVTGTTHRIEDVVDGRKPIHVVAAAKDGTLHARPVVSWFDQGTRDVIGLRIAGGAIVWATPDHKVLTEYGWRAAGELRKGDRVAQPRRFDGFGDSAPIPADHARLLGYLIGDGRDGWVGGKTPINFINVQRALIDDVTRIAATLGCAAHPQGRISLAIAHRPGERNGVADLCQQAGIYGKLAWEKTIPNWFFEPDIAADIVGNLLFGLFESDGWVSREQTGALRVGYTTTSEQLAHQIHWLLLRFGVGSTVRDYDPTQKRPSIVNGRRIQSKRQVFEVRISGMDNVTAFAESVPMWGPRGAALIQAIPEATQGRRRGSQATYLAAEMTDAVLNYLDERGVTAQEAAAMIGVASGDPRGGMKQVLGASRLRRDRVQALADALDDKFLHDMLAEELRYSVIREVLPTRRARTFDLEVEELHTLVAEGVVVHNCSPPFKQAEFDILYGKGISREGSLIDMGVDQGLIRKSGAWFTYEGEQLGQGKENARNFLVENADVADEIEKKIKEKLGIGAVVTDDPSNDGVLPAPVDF
Mtb bLac sens – beta-lactam sensitization of Mtb H37Rv; 0.27% of 330,000 active; M. tuberculosis H37Rv growth with meropenem, percent inhibition; hits of this screen are not shown here; inhibition, % at 25 µM; AID 434955;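 active = about 74% or more and at least 40 points above the plate without the antibiotic, then above 30% in a dose series; inconclusive = first-round hits that could not be retested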;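 also: growth measured after seven days incubation then overnight dye step; 0% = bacteria only wells and 100% = bacteria with antibiotic; twin plates without the antibiotic show which effects depend on it; some results filed as inactive read as strong as hits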
Arbovirus inh repeat – second read-out of Arbovirus inh, no call of its own (marks repeat the call); inhibition, %; measured here: 10K subset replicate screen; many hits read low in the repeat;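 first of two repeat runs on a subset; 0% = infected and 100% = uninfected wells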
Active calls of the source: *; ? = inconclusive; . = not tested or not shown.

SMILES	Mtb H37Rv	YopH PTP inh	Arbovirus inh	RecA intein inh	Mtb bLac sens	others
Cc1nn(-c2ccccc2)c(C)c1C(=O)OCC(=O)Nc1ccc2c(c1)OCO2	-8%	-51	-2	0.4	-18	Arbovirus inh repeat=-5
COc1cc(/C=N/NC(=O)c2cn(-c3cccc(C)n3)cn2)ccc1O	4%	.	-8	-2.5	-6
CCOC(=O)[C@@H]1[C@H]2COc3cc(OC)ccc3[C@@H]2N2C(=O)N(c3cccc(Cl)c3)C(=O)[C@@]12C	.	.	.	3.2	-2
N#C/C(=C/c1cn(CC(=O)O)c2ccccc12)c1ccc(F)cc1	-21%	-31	-6	0.9	8
CCN(C(=O)COC(=O)c1cc(-c2ccccc2)nc2c1c(C)nn2-c1ccc(C)cc1)C1CCS(=O)(=O)C1 (centres undefined)	3%	-19	2	-13	-6
O=C1CC(N2CCOCC2)C(=O)N1CCc1ccccc1 (centres undefined)	3%	-25	-1	1.8	-16
CC(C)(Oc1ccc(Cl)cc1)C(=O)Nc1cccnc1	3%	4	12	-1.0	0	Arbovirus inh repeat=-2
Cc1cccc(OCc2nc(C#N)c(N3CC(C)CC(C)C3)o2)c1 (centres undefined)	7%	.	18	11	1	Arbovirus inh repeat=3
COc1ccccc1OCC(=O)NCCC1=CCCCC1	10%	-25	-4	0.1	47
Brc1ccccc1-c1nc(-c2ccccc2)no1	5%	10	-1	12	1	Arbovirus inh repeat=-1
CO/N=C/C(c1ncc(C(F)(F)F)cc1Cl)S(=O)(=O)c1ccccc1 (centres undefined)	.	.	.	-1.6	-8
COc1ccc(CN2C(=O)NC3(CCCC3)C2=O)cc1F	4%	.	-4	-0.1	-7
CCOc1ccc(-n2c(=O)[nH]c3sc4c(c3c2=O)CCCC4)cc1	-8%	.	40*	0.2	-4
Cc1ccc([C@@H]2[C@@H]3C(=O)N(C)C(=O)[C@@H]3[C@@H]3C(=O)Nc4ccccc4C(=O)N23)cc1	.	.	.	-3.2	-17
C/C(=N\NC(=O)Cc1c(F)cccc1Cl)c1cccnc1	.	.	.	0.3	2
CCOc1ccc(C2C3=C(Nc4nc(N)[nH]c(=O)c42)c2ccccc2C3=O)cc1 (centres undefined)	-3%	2	-12	4.0	5
CCOc1cc2c(cc1OCC)C(c1ccccc1)N(c1ccc(C(=O)O)cc1)C(=O)C2 (centres undefined)	2%	.	.	-2.3	6
Cc1cc(-c2ccc(Cl)cc2)n2ncnc2n1	-10%	.	.	-0.2	0
CC(=O)Nc1ccc(C(=O)NCC2(N3CCCCC3)CCCCC2)cc1	.	.	.	-1.0	?
CC1CC(C)CN(C(=O)Cn2c(=O)n(CCCC(=O)NCc3ccco3)c(=O)c3sccc32)C1 (centres undefined)	.	.	.	-0.6	0
CCOc1cc(/C=N/Nc2nc(Nc3ccccc3)nc(N3CCCCC3)n2)ccc1OCC(=O)O	?	.	16	-2.0	94
O=C(NCC1CCCO1)c1ccccc1-c1nc(-c2ccccc2Cl)no1 (centres undefined)	-2%	.	.	2.5	2
COc1cc(C2c3c(oc4ccccc4c3=O)C(=O)N2Cc2cccnc2)cc(OC)c1OC (centres undefined)	2%	-24	-1	.	.
Cc1nc(CNS(=O)(=O)c2cccc(F)c2)cs1	-1%	-20	.	-1.2	0
Cc1cc(N2CCOCC2)c2c(N)c(C)cc(C)c2n1	7%	-36	5	.	-5
COc1cc(CCNC(=O)c2ccccc2NC(=O)C2=C(C)OCCS2)cc(OC)c1OC	.	.	.	-0.9	-2
O=C(NCCOc1ccccc1)c1cc(C(=O)NCCOc2ccccc2)cc([N+](=O)[O-])c1	16%	-12	-23	-1.5	8
Cc1c(NC(=O)COC(=O)C2=COCCO2)cccc1[N+](=O)[O-]	.	.	.	0.4	30
Cc1cc(NC(=O)c2ccccc2F)ncc1NC(=O)c1cccs1	1%	.	-14	0.0	0
C[C@@H](C(=O)Nc1cccnc1)n1c(=O)[nH]c2ccccc2c1=O	.	.	.	-1.5	-6
COCCCNCCOCCOc1c(OC)cccc1OC	-6%	-48	0	-0.8	-4
CCCc1nn(C)c(C(N)=O)c1[N+](=O)[O-]	-6%	.	2	-5.0	1
CN(C)NC(=S)Nc1ccc(S(=O)(=O)N2CCCCC2)cc1	-18%	.	.	-3.0	14
COc1ccc(/C=C2/CCc3ccccc3C2=O)cc1OC	6%	-16	0	13	23
O=C(CCCO)NNc1c2ccccc2nc2ccccc12	-10%	.	.	-4.9	3
CCOC(=O)C1CCCN(CC(=O)/C=C2/N(C)c3ccccc3C2(C)C)C1 (centres undefined)	-3%	-27	20	-4.0	15
CCOC(=O)c1ccc(NC(=O)N2CCN(CCc3ccccc3)CC2)cc1	?	-9	-22	-1.1	96
Cc1ccc(C)c(OCC(=O)Nc2ccc(S(=O)(=O)Nc3ccccn3)cc2)c1	1%	-28	0	5.0	-1
Cc1cccc(N2CC(C(=O)OCc3ccc([N+](=O)[O-])cc3)CC2=O)c1 (centres undefined)	-1%	.	17	-5.4	-2
COc1ccccc1OCC(=O)Nc1cc(Cl)ccc1Oc1ccccc1	10%	-18	8	3.6	8
COc1ccccc1C(=O)COC(=O)/C=C/c1ccccc1	.	.	.	-0.6	-5
Cc1cccc(NC(=O)[C@H](NC(=O)[C@@H]2Cc3ccccc3CN2)c2ccccc2)c1	.	.	.	5.4	3
O=C(CNC(=O)c1cccs1)N/N=C/c1ccc(Cl)cc1	.	.	.	-0.1	-6
c1ccc(Nc2ncnc3c2oc2ccccc23)cc1	-5%	-25	6	3.1	.
CC(C)c1ccc(C(=O)OC2CCOC2=O)cc1 (centres undefined)	.	.	.	1.6	-1
Cc1ccc(N=C2NC(=O)C(CC(=O)O)S2)cc1 (centres undefined)	-3%	-33	-2	-1.7	28
COc1ccc(C(=O)OC(C)C(=O)Nc2cc(C(F)(F)F)ccc2Cl)c(OC)c1OC (centres undefined)	-3%	-8	1	0.8	-2
CC(C)CCOC(=O)/C(=C/c1ccco1)NC(=O)/C=C/c1ccccc1	-4%	17	3	1.5	6
COC(=O)c1c(O)c2c([nH]c1=O)CCCC2	2%	-30	1	-5.6	-10
COc1ccc(-c2nc3c(c(SCC(=O)N4CCCC4)n2)COC(C)(C)C3)cc1	.	.	.	-0.1	-3
CCN=c1scc(C)n1/N=C/c1ccsc1	-9%	-3	-2	-3.0	-9
O=C(CCOc1ccccc1)Nc1ccnn1C1CCN(CCc2ccccc2)CC1	.	.	.	0.0	5
Cc1ccc(S(=O)(=O)N(C)C)cc1NC(=S)Nc1cccc2ccccc12	.	.	.	9.4	-3
Cc1ccccc1NC(=O)NC1(C(=O)N2CCC(O)CC2)CCCCC1	.	.	.	-1.5	3
Cc1nn(C)c(C)c1CN(Cc1nc(-c2cc(F)ccc2F)oc1C)C1CC1	-6%	.	11	-0.3	-6
CC(C)(C)[C@H]1CCC(=O)N([C@H](CSc2ccccc2)Cc2ccccc2)CC1	.	.	.	11	-10
CCC(CC)NC(=O)CC(c1ccccc1)c1ccccc1	2%	.	-11	-3.0	2
Cc1nn(C(C)(C)C)c(NC(=O)c2ccccc2)c1C#N	.	.	.	2.8	-7
CCc1ccc(S(=O)(=O)ON2C(=O)c3ccccc3C2=O)cc1	1%	.	5	28	.
CCCCOCCCN1CC(=O)N2[C@@H](Cc3c([nH]c4ccccc34)C2(C)C)C1=O	.	.	.	-3.2	0

Seven structures from above, ordered by molecular weight, rising.
SMILES	Mtb H37Rv	YopH PTP inh	Arbovirus inh	RecA intein inh	Mtb bLac sens	others
COC(=O)c1c(O)c2c([nH]c1=O)CCCC2	2%	-30	1	-5.6	-10
Cc1ccc(N=C2NC(=O)C(CC(=O)O)S2)cc1 (centres undefined)	-3%	-33	-2	-1.7	28
CCc1ccc(S(=O)(=O)ON2C(=O)c3ccccc3C2=O)cc1	1%	.	5	28	.
Cc1ccccc1NC(=O)NC1(C(=O)N2CCC(O)CC2)CCCCC1	.	.	.	-1.5	3
Cc1ccc(S(=O)(=O)N(C)C)cc1NC(=S)Nc1cccc2ccccc12	.	.	.	9.4	-3
COc1ccc(-c2nc3c(c(SCC(=O)N4CCCC4)n2)COC(C)(C)C3)cc1	.	.	.	-0.1	-3
O=C(CCOc1ccccc1)Nc1ccnn1C1CCN(CCc2ccccc2)CC1	.	.	.	0.0	5

(continued)
SMILES	Mtb H37Rv	YopH PTP inh	Arbovirus inh	RecA intein inh	Mtb bLac sens	others
O=C(NCc1ccccc1)C12CN(Cc3ccccc3)CC1C(c1ccc([N+](=O)[O-])cc1)=NO2 (centres undefined)	8%	-13	1	1.1	-3
Cc1cc(C(=O)Nc2ccccc2N2CCOCC2)ccc1[N+](=O)[O-]	3%	-32	-6	-2.6	4
CCN(CC)CCN(C(=O)c1cc(Cl)sc1Cl)c1nc2cc3c(cc2s1)OCO3	.	.	.	-1.3	-1
COc1ccc(S(=O)(=O)NNC(=O)c2ccccc2-n2cccc2)cc1	5%	.	0	-2.9	3
Cc1sc2c(c1C)C(O)=C(C(=O)Nc1ccccc1)S(=O)(=O)N2C	2%	.	.	0.7	-6
Cc1cc(S(=O)(=O)Nc2ccc(C(=O)NCC3(N4CCCCC4)CCCCC3)cc2)ccc1F	.	.	.	1.4	-5
NC(=O)CSCc1ccc(Br)cc1	3%	-23	7	-1.4	-7
N/C(=N\c1nc2c(c(=O)[nH]1)CCC2)Nc1cccc2ccccc12	-12%	-14	-10	-1.6	-7
O=C(CSc1nnnn1-c1ccc2c(c1)CCC2)Nc1ccc2c(c1)OCCO2	-3%	-45	15	-0.9	-3
N#Cc1ccc(-c2cccnc2)nc1SCC(=O)c1ccccc1	4%	.	.	-13	-3
O=S(=O)(c1ccc(Br)cc1)N1CCN(c2cc(-c3ccccc3)nc3ncnn23)CC1	?	-32	4	-1.8	99	Arbovirus inh repeat=5
CCOc1ccc(-c2c(C(=O)N/N=C/c3ccc(OC(C)C)cc3)nnn2-c2nonc2N)cc1	-6%	-16	-8	-1.7	-6
CNC(=S)N(CCc1c(C)[nH]c2ccc(C)cc12)Cc1ccco1	.	-35	-2	0.9	-1
O=C(CCc1nnc2ccc(NCc3ccco3)nn12)N1CCCCC1	.	.	.	1.8	-6
CCC(=O)N(Cc1c(C)nn(-c2ccccc2)c1Cl)c1ccc(Cl)cc1	9%	-12	-8	11	10
COc1ccc(Br)cc1C1CC(=O)C(C)C(c2cc(Br)ccc2OC)N1 (centres undefined)	.	.	.	10	-9
CCn1c(=O)cc(SCC(=O)N2CCN(C3CCCCC3)CC2)c2ccccc21	9%	8	-7	-0.5	?
Cc1cc(C(=O)OCC(=O)NCCCN2CCCC2=O)c2ccccc2n1	-16%	-12	11	1.1	-3
Clc1ccc(Oc2cnc3ccccc3n2)cc1	5%	-16	15	8.2	8
C=CCOc1cccc(NC(=O)c2ccccc2SC)c1	13%	.	15	1.6	2
Cc1ccc(C(=O)NC(=S)Nc2ccc(N3CCN(C(=O)c4ccco4)CC3)cc2)cc1	.	.	.	6.6	12
Cc1ccc(-c2cc(C(=O)N3CC(C)OC(C)C3)c3ccccc3n2)o1 (centres undefined)	.	.	.	-0.7	0
O=C(COc1ccc(Cl)cc1Cl)Nc1c(-c2cccs2)nc2ccccn12	-2%	7	-4	0.8	0
COc1cccc(CN(Cc2cccnc2)S(=O)(=O)c2ccc(-n3cnnn3)c(C)c2)c1	7%	-34	8	1.1	-1
Cc1cccc(C)c1NC(=O)C1CCN(S(C)(=O)=O)CC1	.	.	.	-0.2	-7
Cc1cc(C)cc(NC(=O)N2C3CCCC2CC(NC(=O)C2CC2)C3)c1 (centres undefined)	.	.	.	0.7	-1
CCOc1ccc(N(CC(=O)NC2CCCCC2)C(=O)CSc2nnc(COc3ccccc3)o2)cc1	3%	-4	-4	0.8	-1
O=C(Cn1cncc1-c1ccc([N+](=O)[O-])cc1)Nc1cccc2ccccc12	11%	-24	-17	5.2	6
C=CCOc1ccc(CN(C)CC(=O)Nc2ccccc2[N+](=O)[O-])cc1	13%	.	7	7.1	30
COc1ccc(CNC(=S)Nc2ccc(-c3ccccc3)cc2)cc1	?	.	-7	5.0	88
O=C(CNC(=O)c1ccco1)OCC(=O)c1ccc2ccccc2c1	-10%	-6	0	-0.2	-2
C=CCNC(=S)Nc1ccc(N2CCOCC2)c(S(=O)(=O)Nc2ccccc2Cl)c1	5%	.	-4	.	-2
COCC(=O)N1CCc2ccc(NC(=O)c3ccccc3Cl)cc2C1	.	.	.	-1.3	2
Cc1ccc(S(=O)(=O)N(C)c2ccc(C(=O)N3CCN(Cc4ccc5c(c4)OCO5)CC3)cc2)cc1	59%	-28	-9	4.6	97
CCCc1cc(Nc2cccc(OCC)c2)n2ncnc2n1	0%	-30	-7	5.7	?
O=C(OCn1nnc2ccccc2c1=O)c1ccc2c(=O)n3c(nc2c1)CCC3	8%	-29	-4	-7.2	.

This is a subset, so the mix of outcomes need not match the whole.
